Assay outcomes (PubChem)
D2 agonist = human D2 receptor agonism in beta-arrestin assay; P14416; DiscoveRx PathHunter D2 beta-arrestin, luminescence, 90 min; 100% = 57 uM dopamine signal; AID 624465; 360,000 compounds, 0.084% hits; activation, % (test concentration not listed); in the data active = activation above about 40%; inconclusive = about 15% to 40%; inactive = below about 15%; further: compound concentration not given in the record; the text of the record calls up to 30% inactive
Target sequence (P14416 whole entry, looked up): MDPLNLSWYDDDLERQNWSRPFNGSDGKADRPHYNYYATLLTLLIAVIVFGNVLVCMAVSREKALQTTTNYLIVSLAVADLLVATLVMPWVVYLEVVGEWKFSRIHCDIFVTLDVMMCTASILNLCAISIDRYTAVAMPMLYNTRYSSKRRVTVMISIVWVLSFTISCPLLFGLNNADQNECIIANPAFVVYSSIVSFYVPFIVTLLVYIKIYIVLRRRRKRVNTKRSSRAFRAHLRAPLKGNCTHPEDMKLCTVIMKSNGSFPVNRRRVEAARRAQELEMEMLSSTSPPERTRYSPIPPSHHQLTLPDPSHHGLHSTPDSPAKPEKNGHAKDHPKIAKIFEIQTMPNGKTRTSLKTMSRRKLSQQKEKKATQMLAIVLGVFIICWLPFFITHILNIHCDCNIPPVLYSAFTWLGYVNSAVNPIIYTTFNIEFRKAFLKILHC
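DiscoveRx PathHunter D2 beta-arrestin cells (2,100/well) attached overnight, then compound-stimulated 90 min at 37 C in HBSS/10 mM HEPES/0.1% Tween-20 buffer; beta-galactosidase complementation read by luminescence after 1 h at ambient temperature. Dopamine 57 uM final (EC100) as control.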
TRPML1 ag = human mucolipin-1 channel agonism; activation, % (concentration not given with the values); Q9GZU1; 410,000 compounds, 0.12% hits; AID 624414; TRPML1-expressing cells, Ca2+ dye fluorescence, FDSS; host cell line not named in the record; reference of the full effect not given here; in the data active = activation above about 50%; inconclusive = about 30% to 50%; inactive = below about 30%; further: 0% is about no effect; the text of the record puts the active cut at 80%
Target sequence (Q9GZU1 whole entry, looked up): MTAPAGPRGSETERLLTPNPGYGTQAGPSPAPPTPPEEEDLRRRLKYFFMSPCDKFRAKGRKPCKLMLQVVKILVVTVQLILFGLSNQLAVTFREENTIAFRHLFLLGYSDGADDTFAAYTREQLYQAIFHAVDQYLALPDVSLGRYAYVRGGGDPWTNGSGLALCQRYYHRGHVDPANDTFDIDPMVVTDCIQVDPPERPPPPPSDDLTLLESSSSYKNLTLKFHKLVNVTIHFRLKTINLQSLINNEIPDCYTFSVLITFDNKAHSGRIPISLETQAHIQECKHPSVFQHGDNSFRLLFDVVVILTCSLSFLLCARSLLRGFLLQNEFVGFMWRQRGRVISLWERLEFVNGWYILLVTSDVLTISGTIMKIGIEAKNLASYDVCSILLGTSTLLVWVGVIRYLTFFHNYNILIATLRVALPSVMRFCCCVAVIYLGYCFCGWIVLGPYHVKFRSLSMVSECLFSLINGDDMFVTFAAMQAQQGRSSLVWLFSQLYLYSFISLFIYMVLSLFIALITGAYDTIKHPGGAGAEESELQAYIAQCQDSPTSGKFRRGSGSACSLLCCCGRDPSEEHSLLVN
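Calcium fluorescence on an FDSS kinetic reader gave the read-out. Tet-induced TRPML1-DL cells were plated overnight, dye-loaded (Ca8 with quencher, 45-90 min, room temperature, dark), then read 110 s after compound addition, and again 110 s after 4uM final 54-4 (EC80).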
Six1-Eya2 inh = inhibitors of human Six1/Eya2 interaction. AlphaScreen GST-Six1/His-Eya2 binding, biochemical; stronger effect = lower value; control for the full effect not named in the record. activity change, % (test concentration not listed). 360,000 compounds, 0.56% hits; in the data active = activity change below about -65%; inconclusive = about -30% to -65%; inactive = above about -30%; further: on the % scale 0 is the no-effect control and ±100 the full control effect
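Homogeneous AlphaScreen proximity assay pairing GST-Six1 with His-tagged Eya2 (added as 5X mix: 250 nM and 500 nM) in 50 mM Tris pH 8.0, 300 mM NaCl, 1 mM TCEP. Glutathione donor and nickel acceptor beads; 1 h, 37 °C, dark.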
PINK1 modulator = changes PINK1 expression. PINK1 immunofluorescence, high-content cytometry, 24 h. Potency, µM (doses to about 76.6 µM), for the others: at the highest dose activation (PINK1 increase), hits mostly activators. 410,000 compounds, 0.2% hits; active = well fitted activation curve with a large enough effect; inconclusive = small, poorly fitted or top-dose-only effect; inactive = flat fitted curve, though single readings scatter; cell line not stated here;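 further: potency means the concentration at half of the fitted maximal effect; % of control where 0% means no effect; nearly all actives have a fitted effect of over 65% in size; a mitochondrial uncoupler was the plate control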
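Measures PINK1 amount and localization on or inside mitochondria by immunofluorescence. Stable cells get compounds at 5 concentrations for 24 hours before fixation and staining; CCCP controls included.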
TRPML1 inh = human mucolipin-1 channel inhibition; Q9GZU1; TRPML1-inducible cells, Ca2+ dye fluorescence, FDSS; stronger effect = lower value; inhibition of EC80 agonist-evoked calcium signal; activity change, negative = inhibition, % (test concentration not listed); 390,000 compounds, 0.02% hits; AID 624415; in the data active means activity change below about -50%; inconclusive means about -30% to -50%; inactive means above about -30%;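 further: stimulus is agonist 54-4 at its EC80 concentration; on the % scale 0 is the no-effect control and ±100 the full control effect; compound concentration not given in the record; the text of the record puts the active cut at -80%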
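TRPML1-DL cells, Tet-induced overnight (~16 h, 37 °C) at 1,500 cells/well, were loaded with Ca8 no-wash dye plus quencher for 45-90 min at room temperature. Compounds were pinned during FDSS kinetic reading; agonist 54-4 at EC80 (4 uM final) then added.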
CtBP-E1A blk = CtBP/E1A binding inhibition; AlphaScreen GST-E1A/His-CtBP binding, 1536-well; stronger effect = lower value; control for the full effect not named in the record; activity change, % (no concentration beside the values); AID 651724; 340,000 compounds, 0.49% hits; in the data active means activity change below about -65%; inconclusive means about -30% to -65%; inactive means above about -30%; further: on the % scale 0 is the no-effect control and ±100 the full control effect
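In 5 uL wells, 23 nL compound meets equimolar GST-E1A and His-CtBP (5X stock 125 nM each) for 2 h, 37 °C. Beads (5X, 50 ug/mL) then 1 h, 37 °C, dark.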
Starred values were filed as active, the others as inactive; ? = inconclusive; . = not tested or not shown; & = joins results of further samples; [ ] = remark or other dose.

Values run as follows: D2 agonist	TRPML1 ag	Six1-Eya2 inh	PINK1 modulator	TRPML1 inh	CtBP-E1A blk
Cc1c(NC(=O)c2ccc(OC(C)C)cc2)cccc1-c1nc2ncccc2o1
→ .	-0.8	.	0.2%	-6	.
Cc1ccc(C)c(NC(=O)C2CCCN(c3nc4ccccc4s3)C2)c1 (stereo unspecified)
→ .	0.2	.	-0.4%	-17	.
CC(=O)N(c1nc(CCl)cs1)c1cccc(C)c1C
→ 2.3	0.2	2	0.4%	-10	0
COc1ccc(/C=C/C(=O)OCc2csc(-c3ccccc3)n2)cc1OC
→ -2.4	2.6	13	2.1%	-2	11
CCOc1ncccc1C(=O)Nc1ccc(S(=O)(=O)Nc2cc(C)nc(C)n2)cc1
→ 0.7	-0.1	-3	0.7%	2	-4
Cc1ccc(OC(=O)CSc2nnc(-c3cccs3)o2)cc1
→ .	-0.4	.	-0.5%	-15	.
COc1ccccc1NC(=O)CSc1nc(O)c(Cc2ccccc2)c(=O)[nH]1
→ -2.6	-0.6	-7	-0.3%[38.3 µM]	-11	7
COc1ccc2nc(-c3ccccc3)[nH]c2c1
→ 1.3	0.3	1	1.1%	-12	-11
Cc1ccc(OCc2n[nH]c(=S)n2N)cc1C
→ 0.7	-1.6	-1	0.4%	7	4
CCc1ccc(CNC(=O)C2CCN(c3nnc(C)c4c(C)n(-c5ccc(C)cc5)nc34)CC2)cc1
→ -7.1	-0.2&3.3	4	-0.7%&3.3%	0&51	-14
COC(=O)C(/C=N/OCc1ccc([N+](=O)[O-])cc1)NC(=O)c1cccc(Cl)c1 (stereo unspecified)
→ 0.3	14	0	0.7%	-23	-3
Cc1cc(C(=O)N/N=C/c2ccc([N+](=O)[O-])o2)c(C)o1
→ ?	1.0	-15	9.4%	9	.
COc1ccc(/C=C/C(=O)NC(=S)N2CCN(C)CC2)cc1
→ 2.2	0.6	-5	-1.7%	-11	-3
C=CCNC(=O)N1CCC(c2nc3ccccc3s2)CC1
→ 2.0	0.5	14	4.1%	1	5
O=C(c1cnn(-c2ccc(F)cc2)c1-n1cccc1)N1CCN(c2ccccc2)CC1
→ .	0.7	.	-1.4%	-9	.
CCCN(CC(=O)Nc1ccccc1OC)C(=O)c1ccc(S(=O)(=O)Nc2ccccc2OC)cc1
→ 2.4	2.2	4	0.0%	10	-11
O=C(CNC(=O)CNC(=O)c1ccc(Cl)cc1Cl)NCc1cccc(Cl)c1
→ -1.4	-0.1	0	2.6%	-1	1
CCOC(=O)Cc1csc(NC(=O)/C=C\c2ccccc2)n1
→ -1.7	0.2	-1	2.0%	-13	6
COC(=O)c1cccc(N2C(=O)C3C4C=CC(CC4)C3C2=O)c1 (stereo unspecified)
→ -3.8	1.0	-1	1.0%	1	.
CC1C(=O)N2CCCc3cc(S(=O)(=O)NCc4ccccc4Cl)cc1c32 (stereo unspecified)
→ 2.7	-0.1	5	0.4%	-1	1

Following part.
Values run as follows: D2 agonist	TRPML1 ag	Six1-Eya2 inh	PINK1 modulator	TRPML1 inh	CtBP-E1A blk
C[C@@H]1CN([C@H](C)CO)S(=O)(=O)c2ccc(Br)cc2O[C@H]1CN(C)C(=O)Nc1cccc(F)c1
→ -0.6	2.6	10	1.0%	-9	-1
C/C(=N\N1C(=O)c2ccccc2NC1c1ccccc1)c1ccccc1O (stereo unspecified)
→ -0.5	-0.4	-4	7.3%	10	.
CN(Cc1ccccc1)Cc1nc2c(c(=O)n(C)c(=O)n2C)n1Cc1ccccc1Cl
→ -4.2	1.4	0	3.4%[38.3 µM]	5	1
COc1ccc(CNC(=O)C(c2ccco2)N(C(=O)c2csnn2)c2cccc(C)c2C)cc1 (stereo unspecified)
→ -4.4	0.5	0	-1.1%	-9	-1
CC(C)Oc1ccc(Nc2ncnc3ccccc23)cc1
→ 0.3	1.4	9	0.0%	3	18
Cc1cccc(OCC(O)CN2CCN(c3ccccn3)CC2)c1C (stereo unspecified)
→ ?	-0.6	2	5.7%	-2	-1
CCOc1ccc(C(=O)n2cc(C(=O)OC)c3ccccc32)cc1OCC
→ -3.5	-0.6	-11	6.3%	5	4
NCc1ccccc1CS(=O)(=O)N1CCOCC1
→ 1.4	0.4	0	1.4%	-6	5
Cc1cc(-c2nnc(-c3cccc(C(F)(F)F)c3)o2)no1
→ -1.7	0.1	-4	0.6%	9	1
O=C(O)CN1C(=O)CSC1=S
→ 4.1	1.7	-5	5.7%	-26	-13
CCOc1ccc(Cn2nnc(C(=O)Nc3cc(C)cc(C)c3)c2N)cc1
→ 6.5	2.3	18	9.1%	24	0
Cc1cc2c(ncn2Cc2ccccc2)c([N+](=O)[O-])c1C
→ -0.8	-0.1	-1	-2.3%[38.3 µM]	9	0
CC(C)n1c(SC2C(=O)CC(C)(C)CC2=O)nc2c1c(=O)n(C)c(=O)n2C
→ 2.5	-0.2	-3	5.6%[38.3 µM]	-4	2
COc1ccc(OC)c(C(=O)NC(CC(N)=O)c2ccc(NC(C)C)c([N+](=O)[O-])c2)c1 (stereo unspecified)
→ -6.3	-0.8	-2	2.4%	19	-4
O=C(O)c1ccc(CNC(=O)c2ccc(S(=O)(=O)N3CCCCC3)cc2)cc1
→ -0.2	-0.3	-1	3.8%	-11	3
CCOC(CNc1ncnc2sc(-c3ccccc3)cc12)OCC
→ 5.1	1.0	9	-1.2%	-15	4
COC(=O)CN1C(c2ccc(Cl)cc2)=Nc2ccc(Cl)cc2C1c1ccccc1 (stereo unspecified)
→ 0.2	0.4	-15	25%	36	-12
Cc1onc(-c2ccccc2)c1C(=O)Nc1cccc(S(=O)(=O)NC2=NCCC2)c1
→ -4.1	1.2	4	-0.5%	-5	-7
CC(=O)Nc1ccc(S(=O)(=O)NCc2nc(-c3ccc(C)cc3)no2)cc1
→ 4.8	-0.8	3	-0.7%	-11	.
Cc1cc(=O)n2[nH]c(-c3ccc(F)cc3)nc2n1
→ -1.0	1.2	3	-1.1%	37	0

Remaining list, next part
Values run as follows: D2 agonist	TRPML1 ag	Six1-Eya2 inh	PINK1 modulator	TRPML1 inh	CtBP-E1A blk
COc1nccnc1NS(=O)(=O)c1ccc(NCc2cc(Br)ccc2O)cc1
→ 0.8	-0.3	-77*	0.8%	7	-73*
COc1ccc(-c2cn3c(C)c(C(=O)Nc4cccc(C)n4)sc3n2)cc1
→ 1.3	0.6	-17	8.8%[38.3 µM]	24	-3
O=[N+]([O-])c1ccccc1S(=O)(=O)NCCc1ccncc1
→ -1.5	-0.3	11	1.5%	-10	5
COc1ccc(NC(=O)c2nn(C)cc2[N+](=O)[O-])cc1
→ -2.3	1.0	5	-0.8%	-6	-23
CCOc1cc(C(c2c(C)[nH][nH]c2=O)c2c(C)[nH][nH]c2=O)ccc1OS(=O)(=O)c1ccccc1
→ -0.1	0.8	-5	1.6%[38.3 µM]	-19	0
CCOC(=O)c1cnc2ccc(OCC)cc2c1N1CCN(c2ccccc2OC)CC1
→ 0.9	0.2	-27	4.0%	-6	-4
Cc1ccc(NC(=O)C2CC(=O)N/C(=N/N=C/c3ccco3)S2)cc1C (stereo unspecified)
→ -2.8	-0.1	-3	1.2%	2	-4
CCC(=O)N1CCc2cc(Br)cc(S(=O)(=O)N3CCCC(C(=O)N(C)c4ccc(Br)cc4)C3)c21 (stereo unspecified)
→ .	0.1	.	2.4%	31	.
COc1cc(/C=N/Nc2ccc([N+](=O)[O-])cc2S(=O)(=O)N2CCOCC2)cc(OC)c1OC
→ -2.2	-0.4	2	3.3%	-3	1
COCc1cc(C)nc2sc(C(=O)Nc3ccccc3F)c(N)c12
→ -3.3	-0.2	27	-0.7%	1	22
CCOC(=O)c1ccc2c(c1)NCc1cccc(OC)c1O2
→ -6.3	0.6	10	-0.7%	4	.
CN(C)c1ccc(O)c2c1CC1CC3C(N(C)C)C(=O)C(C(N)=O)=C(O)[C@@]3(O)C(=O)C1=C2O (stereo partly specified)
→ -2.9	0.1	-11	1.5%	5	-16
COc1cccc(C2c3c(-c4ccccc4O)n[nH]c3C(=O)N2Cc2cccnc2)c1 (stereo unspecified)
→ .	0.3	.	0.5%	-10	.
Cc1cc(N2CCN(c3ccccc3)CC2)nc(-n2nc(C)cc2C)n1
→ 0.1	1.7	-24	10.0%[38.3 µM]	-2	-29
NS(=O)(=O)c1ccc(CCNC(=S)Nc2ccccc2)cc1
→ -0.4	0.5	5	2.3%	-14	-2
Cc1ccc2c(CC(=O)N3CCN(S(=O)(=O)c4cccs4)CC3)coc2c1
→ -1.8	1.0	-5	-0.6%	39	-1
Cc1cc(C)c2sc(N(CCCN(C)C)C(=O)c3ccc(S(=O)(=O)N(C)C4CCCCC4)cc3)nc2c1
→ -6.0	0.5	-28	-1.9%	37	?
Cc1ccc(S(=O)(=O)CCC(=O)N2CCN(c3nc4c(C)c(C)ccc4s3)CC2)cc1
→ .	-1.1	.	0.8%	8	.
Cc1[nH]c2c(C)cccc2c1CCNC(=O)c1cc2ccccc2oc1=O
→ .	2.4	.	2.5%	30	.
O=C(NCc1ccccc1)c1ccc(N2C(=O)C3CCCCC3C2=O)cc1 (stereo unspecified)
→ 2.4	0.4	0	0.1%	-10	4

(more compounds)
Values run as follows: D2 agonist	TRPML1 ag	Six1-Eya2 inh	PINK1 modulator	TRPML1 inh	CtBP-E1A blk
Cn1c(=O)[nH]c(=O)c2c1nc(Br)n2CCOc1ccccc1
→ 0.0	1.1	0	2.0%	7	-20
COc1ccc(S(=O)(=O)c2cn(Cc3ccccc3)c3cc(F)c(F)cc3c2=O)cc1
→ .	0.2	.	0.7%	11	.
COc1cccc(NC(=O)CSc2ncnc3c2cnn3Cc2ccccc2)c1
→ -2.2	1.0	2	0.1%	-5	2
COc1cccc(C2CC(=O)N3CN(c4ccccc4F)CSC3=C2C#N)c1 (stereo unspecified)
→ 7.9	-0.4	-1	3.0%	2	-2
O=[N+]([O-])c1cccc(C(=S)N2CCN(c3ccccc3F)CC2)c1
→ 1.2	1.8	-27	-0.8%	58	-30
COc1ccc(CNC(=O)[C@H](C)NC(=O)N2CCn3c2nc2ccccc23)cc1
→ 0.0	0.7	-1	0.3%	8	2
O=C(C[C@H]1C/C=C\CC[C@H](Cc2ccc(F)cc2)C(=O)O[C@@H](c2ccccc2)CNC1=O)N[C@H](CO)Cc1ccccc1
→ 1.0	2.3	10	-0.6%	-9	.
C[C@@H](N)C(=O)NC[C@H]1O[C@@H](n2cnc3c(N)ncnc32)[C@H](O)[C@@H]1O
→ -0.4	-0.7	-3	0.0%	-1	1
CCOC(=O)CSCc1csc(CC(=O)Nc2ccccc2C)n1
→ -3.3	-0.5	3	-0.9%	4	9

Laid out differently: entries from further up
mol | D2 agonist | TRPML1 ag | Six1-Eya2 inh | PINK1 modulator | TRPML1 inh | CtBP-E1A blk
Cn1c(=O)[nH]c(=O)c2c1nc(Br)n2CCOc1ccccc1 | 0.0 | 1.1 | 0 | 2.0% | 7 | -20
COc1ccc(S(=O)(=O)c2cn(Cc3ccccc3)c3cc(F)c(F)cc3c2=O)cc1 | . | 0.2 | . | 0.7% | 11 | .
COc1cccc(NC(=O)CSc2ncnc3c2cnn3Cc2ccccc2)c1 | -2.2 | 1.0 | 2 | 0.1% | -5 | 2
